Bioassay records deposited in PubChem by several laboratories.
YopH PTP inh: YopH (Yersinia) phosphatase inhibition; fluorescence Ex485/Em525; inhibition, %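 (about 10 µM by stock and volumes)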; 0.16% of 140,000 active; AID 898;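 active = inhibition of 50% or more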;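 also: controls were vehicle for no effect and minimum signal wells for full effect; inactives centre near -20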
RecA intein inh: blocks M. tuberculosis RecA intein splicing; P9WHJ3; cell-free RecA intein splicing, fluorescence; inhibition, %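 (about 9 µM by stock and volumes)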; 0.75% of 290,000 active; AID 2221; in the data active = inhibition above about 30%; inconclusive = no clear call, values can overlap the other calls;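 also: 0% = vehicle wells and 100% = reference inhibitor control wells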
Target sequence (P9WHJ3 whole entry, looked up): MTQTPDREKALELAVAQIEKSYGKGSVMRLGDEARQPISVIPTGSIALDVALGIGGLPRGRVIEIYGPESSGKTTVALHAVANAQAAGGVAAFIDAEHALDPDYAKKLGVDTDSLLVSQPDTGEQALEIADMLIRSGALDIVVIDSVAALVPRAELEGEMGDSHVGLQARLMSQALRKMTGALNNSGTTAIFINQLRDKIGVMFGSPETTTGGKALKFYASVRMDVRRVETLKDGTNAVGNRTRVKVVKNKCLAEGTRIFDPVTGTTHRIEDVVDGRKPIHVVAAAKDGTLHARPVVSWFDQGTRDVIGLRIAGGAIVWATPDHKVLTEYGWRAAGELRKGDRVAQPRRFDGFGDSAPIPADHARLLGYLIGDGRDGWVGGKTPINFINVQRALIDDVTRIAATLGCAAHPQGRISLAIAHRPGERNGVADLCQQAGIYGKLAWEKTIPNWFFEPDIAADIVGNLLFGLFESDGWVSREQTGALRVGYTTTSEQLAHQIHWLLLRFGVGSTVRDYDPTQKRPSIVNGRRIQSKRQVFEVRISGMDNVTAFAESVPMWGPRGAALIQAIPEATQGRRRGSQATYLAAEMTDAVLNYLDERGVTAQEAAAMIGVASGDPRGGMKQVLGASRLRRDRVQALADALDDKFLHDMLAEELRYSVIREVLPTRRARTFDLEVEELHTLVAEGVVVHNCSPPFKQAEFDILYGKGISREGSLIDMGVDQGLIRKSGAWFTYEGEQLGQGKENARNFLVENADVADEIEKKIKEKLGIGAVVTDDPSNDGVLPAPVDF
Mtb bLac sens: beta-lactam sensitization of Mtb H37Rv | M. tuberculosis H37Rv growth with meropenem, percent inhibition; hits of this screen are not shown here | inhibition, % at 25 µM | 0.27% of 330,000 active;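 active = about 74% or more and at least 40 points above the plate without the antibiotic, then above 30% in a dose series; inconclusive = first-round hits that could not be retested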;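 also: growth measured after seven days incubation then overnight dye step; 0% = bacteria only wells and 100% = bacteria with antibiotic; twin plates without the antibiotic show which effects depend on it; some results filed as inactive read as strong as hits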
Arbovirus anti: arbovirus infection inhibition; arbovirus infection cell-based antiviral screen; inhibition, % at 10 µM; 0.37% of 200,000 active; AID 1251;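 active = inhibition from about 30%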;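 also: bluetongue infection of BSR cells; cell survival read as ATP light after 72 h; 0% = infected wells without compound and 100% = uninfected wells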
Mtb growth: M. tuberculosis H37Rv growth inhibitors, H37Rv strain (AID 1626); one-dose inhibition, % at 10 µM; IC50 in µM for titrated hits; M. tuberculosis H37Rv growth inhibition; higher % means a stronger effect; 0.95% of 220,000 active;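 active = confirmed in a dose series; inconclusive = inhibition above 80% but not taken into the dose series; inactive = below 80% or under 30% at every dose of the series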;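 also: bacteria incubated seven days before Alamar blue readout; 0% = bacteria only wells and 100% = bacteria with antibiotic wells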
Arbovirus anti repeat: recorded beside Arbovirus anti, whose call it bears; inhibition, %; measured here: 10K subset replicate screen; many hits read low in the repeat;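 first of two repeat runs on a subset; 0% = infected and 100% = uninfected wells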
* = called active by the depositor. A portion of the library; rates above refer to the full screens.

For Cc1c(C)n(CC(O)CN2C(=O)c3ccccc3S2(=O)=O)c2ccccc12 (configuration not stated) the results were YopH PTP inh -18, RecA intein inh 1.8, Mtb bLac sens -4, Arbovirus anti 11 and Mtb growth -10%.
For Cc1ccc(/C=N/n2c(-c3ccco3)n[nH]c2=S)cc1 the results were RecA intein inh 2.5, Mtb bLac sens -3 and Mtb growth 3%.
`CCOC(=O)Cn1c(C)nc2ccccc21` gave YopH PTP inh -77, RecA intein inh -1.1, Mtb bLac sens -8, Arbovirus anti 5, Mtb growth 7% and Arbovirus anti repeat 0.
`Nn1c(SCc2cn3ccsc3n2)nnc1-c1ccncc1` gave YopH PTP inh 2, RecA intein inh -0.2, Mtb bLac sens -4 and Arbovirus anti 2.
For CCCCSc1nc2c(c(C(F)(F)F)c1C#N)CCC2 the results were YopH PTP inh -9, RecA intein inh -0.3, Mtb bLac sens 5, Arbovirus anti 3 and Mtb growth -1%.
COc1cccc(C(c2c(N)[nH]c(=S)[nH]c2=O)c2c(N)[nH]c(=S)[nH]c2=O)c1 was read as RecA intein inh -1.7, Mtb bLac sens -10 and Mtb growth 1%.
For CCOc1ccccc1NC(=S)/C(=C(\[O-])c1ccc2c(c1)OCCO2)[n+]1ccc(CC)cc1 the results were YopH PTP inh 4, RecA intein inh 12, Mtb bLac sens 3, Arbovirus anti -1 and Mtb growth 1%.
COc1cc(C(F)(F)F)c(C(=O)N(C)c2ccc(Cl)cc2)cn1 was read as RecA intein inh 1.0, Mtb bLac sens -3 and Mtb growth -9%.
`O=C(COc1ccc(Cl)cc1)Nc1ccccc1Cl` gave RecA intein inh -3.2 and Mtb bLac sens -3.
For O=C(CC(C(=O)O)c1cccc(Br)c1)c1ccc(Cl)cc1 (configuration not stated) the results were RecA intein inh -3.8 and Mtb bLac sens 4.
Screening Cc1cccn2c(=O)c3cc(C(=O)N4CCC5(CC4)OCCO5)n(C)c3nc12 returned YopH PTP inh -22, RecA intein inh -5.0, Mtb bLac sens -1 and Arbovirus anti -12.
CC(=O)Nc1cccc(C(=O)/C=C/c2ccco2)c1 was read as YopH PTP inh -30, RecA intein inh 5.1, Mtb bLac sens -12, Arbovirus anti -2 and Mtb growth -8%.
CCN(CC)CCNC(=O)/C(=N\O)c1ccccn1 was read as RecA intein inh 4.8, Mtb bLac sens -6, Arbovirus anti 0 and Mtb growth 0%.
For COc1cc(/C=C(\C#N)c2ccccn2)ccc1OCc1ccccc1 the results were YopH PTP inh -13, RecA intein inh 21, Mtb bLac sens 76, Arbovirus anti 0 and Mtb growth 54%.
Screening C=CCN(C(=O)c1cc(C)cc(C)c1)C1(C(=O)Nc2ccccc2)CCN(C(C)C)CC1 returned RecA intein inh 1.1, Mtb bLac sens 0, Arbovirus anti -1 and Mtb growth 5%.
`c1coc(-c2nnc(SCc3nc4ccccc4[nH]3)o2)c1` gave YopH PTP inh -39, RecA intein inh -0.1, Mtb bLac sens -6, Arbovirus anti 1 and Mtb growth 0%.
O=C(Cc1cccs1)Nc1nnc(SCc2ccc(Br)cc2)s1 was read as YopH PTP inh -17, RecA intein inh 1.0, Mtb bLac sens -1 and Arbovirus anti -4.
Screening CCc1ccccc1NC1=CC(=O)CC(C)(C)C1 returned RecA intein inh -3.6, Mtb bLac sens 1, Arbovirus anti 4 and Mtb growth -10%.
Screening CNC(=O)CC1C(=O)N(c2ccc(F)cc2)C(=S)N1NC(=O)c1ccc(Cl)cc1 (configuration not stated) returned RecA intein inh -2.3 and Mtb bLac sens -1.
Cc1nc2cc(C(=O)OCC(=O)Nc3ccc(C#N)cc3)ccc2n1-c1ccccc1 was read as YopH PTP inh -8, RecA intein inh 2.0, Mtb bLac sens 60, Arbovirus anti -3 and Mtb growth -6%.
`CC(CCc1ccccc1)NC(=O)c1ccccc1C(=O)O` (configuration not stated) gave RecA intein inh -0.9 and Mtb bLac sens 0.
CNC(=O)CN(Cc1ccccc1)S(=O)(=O)c1ccccc1 was read as YopH PTP inh -31, RecA intein inh 0.5, Mtb bLac sens 4, Arbovirus anti 1 and Mtb growth -9%.
`Cc1ccc(NC2CC(=O)N(CCc3ccccc3)C2=O)cc1` (configuration not stated) gave YopH PTP inh 9, RecA intein inh -4.1, Mtb bLac sens 0, Arbovirus anti 12 and Mtb growth 10%.
COC(=O)C1=C(C)NC(=O)NC1c1ccc(-c2ccccc2Cl)o1 (configuration not stated) was read as RecA intein inh -0.8, Mtb bLac sens -10, Arbovirus anti -8 and Mtb growth 4%.
`C#CCNC(=O)C1=C[C@@H](c2ccc(C#C)cc2)C[C@@H](OCc2ccc(CO)cc2)O1` gave RecA intein inh 6.3, Mtb bLac sens 1 and Mtb growth -1%.
Screening COc1ccc(/C=N\Nc2ccccc2[N+](=O)[O-])c(C(=O)O)c1OC returned RecA intein inh 1.7, Mtb bLac sens -9 and Mtb growth -10%.
Screening CC(C)NC(=O)C(=O)NCCC1CCCCN1S(=O)(=O)c1cccs1 (configuration not stated) returned RecA intein inh -1.5 and Mtb bLac sens -1.
COc1cc(/C=N/n2cnnc2)ccc1OCc1ccccc1 was read as YopH PTP inh -134, RecA intein inh -2.1, Mtb bLac sens 5, Arbovirus anti -2 and Mtb growth 2%.
Screening CC1CC2(CCCC2)N(C(=O)N(C)C)c2ccc(F)cc21 (configuration not stated) returned RecA intein inh -0.4 and Mtb bLac sens 6.
Screening CCOC(=O)c1sc(=NC(=O)c2ccc(S(=O)(=O)N3CC(C)OC(C)C3)cc2)n(C)c1C (configuration not stated) returned YopH PTP inh -37, RecA intein inh -3.6, Mtb bLac sens -4, Arbovirus anti 0 and Mtb growth -1%.
Screening O=C(N/N=C/C(Br)=C/c1ccccc1)c1ccccc1[N+](=O)[O-] returned RecA intein inh 3.6 and Mtb bLac sens 7.
`CCOC(=O)N1CCN(CC(=O)Nc2ccc(F)cc2F)CC1` gave RecA intein inh 1.4, Mtb bLac sens -6, Arbovirus anti 0 and Mtb growth -1%.
`CCN(CC)CCOC(=O)C1(c2ccc(OC)c(OC)c2)CCCC1` gave YopH PTP inh 2, RecA intein inh -0.1, Mtb bLac sens -2, Arbovirus anti -1 and Mtb growth -5%.
Screening CC(=O)N1[C@@H]2CC3C4CC=C5C[C@@H](O)CC[C@]5(C)C4CC[C@]3(C)[C@@]21C(C)=O (some centres not stated) returned YopH PTP inh -3, RecA intein inh -0.1, Mtb bLac sens 6, Arbovirus anti -7 and Mtb growth 4%.
Cc1ccc(C(=O)CC2(O)C(=O)N(Cc3ccccc3Cl)c3ccccc32)o1 (configuration not stated) was read as YopH PTP inh -10, RecA intein inh 5.5, Mtb bLac sens -17, Arbovirus anti -5 and Mtb growth 1%.
`Cc1ccc(CNC(=O)c2nccnc2C(=O)O)cc1` gave RecA intein inh -1.9 and Mtb bLac sens -5.
`Brc1ccc(CN2C3=NCCCN3c3ccccc32)cc1` gave YopH PTP inh -32, RecA intein inh 1.0, Mtb bLac sens -10, Arbovirus anti -4 and Mtb growth 15%.
`COc1ccc2c(c1)O[C@H](c1ccc3c(c1)OCO3)[C@@H](OC(=O)N[C@H]1CCCc3ccccc31)C2=O` gave YopH PTP inh 16, Mtb bLac sens 3, Arbovirus anti -7 and Mtb growth -8%.
`CCCCc1ccc(NC(=O)C(=O)NCCN2CCN(C(=O)c3ccc([N+](=O)[O-])cc3)CC2)cc1` gave RecA intein inh -0.5 and Mtb bLac sens -6.
`OCCNCc1cccc(OCc2ccc(Cl)cc2)c1` gave RecA intein inh 0.1, Mtb bLac sens -9, Arbovirus anti -18 and Mtb growth 9%.
`Cc1nc2nc(C)c(CCC(=O)N3CCC4(CC3)OCCO4)c(C)n2n1` gave YopH PTP inh 1, RecA intein inh 0.7, Mtb bLac sens -5, Arbovirus anti 5 and Mtb growth 1%.
`COC(=O)CCCC1=CC2=CC(=O)C(C)(OC(=O)c3cccs3)C(=O)C2=CN1CCN1CCOCC1` (configuration not stated) gave RecA intein inh -0.6, Mtb bLac sens -1 and Mtb growth -13%.
`Cc1c(C(=O)NN)nn(-c2ccc(Cl)cc2)c(=O)c1C#N` gave RecA intein inh 43*, Mtb bLac sens 4, Arbovirus anti 6 and Mtb growth -5%.
O=C(NCCc1cn2ccccc2n1)c1ccc(Br)o1 was read as YopH PTP inh -23, RecA intein inh 5.0, Mtb bLac sens 1, Arbovirus anti -8 and Mtb growth 4%.
Screening CSc1cccc(NC(=O)C2(S(=O)(=O)c3ccc(C)cc3)CC2)c1 returned RecA intein inh 1.8, Mtb bLac sens -3, Arbovirus anti 4 and Mtb growth -9%.
`O=C(Cn1cncn1)N/N=C/c1cccc2ccccc12` gave YopH PTP inh 13, RecA intein inh -0.2, Mtb bLac sens 4, Arbovirus anti -1 and Mtb growth -1%.
For NC(=O)c1c(NC(=O)CSc2nc3c(c(C(F)(F)F)n2)CCc2ccccc2-3)sc2c1CCCC2 the results were YopH PTP inh -26, RecA intein inh 2.1, Mtb bLac sens 4, Arbovirus anti 0 and Mtb growth 2%.
CC(OC(=O)c1cccnc1SCc1cc(=O)n2ccccc2n1)c1ccccn1 (configuration not stated) was read as YopH PTP inh 0, RecA intein inh 1.1, Mtb bLac sens 93, Arbovirus anti -10 and Mtb growth 4%.
`O=C(CSc1nc2c(c(=O)n1-c1ccc(F)cc1)SCC2)NCC1CCCO1` (configuration not stated) gave YopH PTP inh -7, RecA intein inh 0.6, Mtb bLac sens 5, Arbovirus anti 2, Mtb growth -16% and Arbovirus anti repeat 4.
`COC(=O)C(NC(=O)c1ccc(OC)cc1)(Nc1ncc(S(=O)(=O)c2ccc([N+](=O)[O-])cc2)s1)C(F)(F)F` (configuration not stated) gave YopH PTP inh -27, RecA intein inh 3.5, Mtb bLac sens inconclusive, Arbovirus anti -1 and Mtb growth -2%.
`COc1ccc(-n2nc([N+](=O)[O-])c(=NCCc3ccccc3)n2O)cc1` gave YopH PTP inh -40, RecA intein inh -3.3, Mtb bLac sens 3, Arbovirus anti -19 and Mtb growth 7%.
For CCOCCCNC(=O)C(NC(=O)c1ccccn1)c1ccc(C)cc1 (configuration not stated) the results were YopH PTP inh -4, RecA intein inh -2.1, Mtb bLac sens -7, Arbovirus anti 0, Mtb growth 7% and Arbovirus anti repeat -2.
Cc1ccc(C=Nc2cc([N+](=O)[O-])ccc2C)s1 was read as YopH PTP inh -14, RecA intein inh 0.5, Mtb bLac sens -4, Arbovirus anti 7 and Mtb growth 0%.
`COc1ccccc1N(CC(=O)NC1CCCCC1)S(C)(=O)=O` gave YopH PTP inh -32, RecA intein inh -2.2, Mtb bLac sens 2, Arbovirus anti 4 and Mtb growth -14%.
For O=C1N(c2ccc(Cl)cc2)C(c2cccnc2)N2CCCN12 (configuration not stated) the results were RecA intein inh 5.2, Mtb bLac sens -3, Arbovirus anti -2 and Mtb growth 8%.
Screening CC1=Nc2cc(C(=O)N3CCCC3)ccc2Sc2ccc(C)cc21 returned RecA intein inh 4.1 and Mtb bLac sens 1.

Molecules from the list above that contain a Cl atom (9):
COc1cc(C(F)(F)F)c(C(=O)N(C)c2ccc(Cl)cc2)cn1 was read as RecA intein inh 1.0, Mtb bLac sens -3 and Mtb growth -9%.
`O=C(COc1ccc(Cl)cc1)Nc1ccccc1Cl` gave RecA intein inh -3.2 and Mtb bLac sens -3.
For O=C(CC(C(=O)O)c1cccc(Br)c1)c1ccc(Cl)cc1 (configuration not stated) the results were RecA intein inh -3.8 and Mtb bLac sens 4.
Screening CNC(=O)CC1C(=O)N(c2ccc(F)cc2)C(=S)N1NC(=O)c1ccc(Cl)cc1 (configuration not stated) returned RecA intein inh -2.3 and Mtb bLac sens -1.
COC(=O)C1=C(C)NC(=O)NC1c1ccc(-c2ccccc2Cl)o1 (configuration not stated) was read as RecA intein inh -0.8, Mtb bLac sens -10, Arbovirus anti -8 and Mtb growth 4%.
Cc1ccc(C(=O)CC2(O)C(=O)N(Cc3ccccc3Cl)c3ccccc32)o1 (configuration not stated) was read as YopH PTP inh -10, RecA intein inh 5.5, Mtb bLac sens -17, Arbovirus anti -5 and Mtb growth 1%.
`OCCNCc1cccc(OCc2ccc(Cl)cc2)c1` gave RecA intein inh 0.1, Mtb bLac sens -9, Arbovirus anti -18 and Mtb growth 9%.
`Cc1c(C(=O)NN)nn(-c2ccc(Cl)cc2)c(=O)c1C#N` gave RecA intein inh 43*, Mtb bLac sens 4, Arbovirus anti 6 and Mtb growth -5%.
For O=C1N(c2ccc(Cl)cc2)C(c2cccnc2)N2CCCN12 (configuration not stated) the results were RecA intein inh 5.2, Mtb bLac sens -3, Arbovirus anti -2 and Mtb growth 8%.
